# Source: PubChem BioAssay
# Rango complex inh – qHTS Assay for Inhibitors of Rango (Ran-regulated importin-beta cargo) - Importin beta complex formation; Importin subunit beta-1 (Homo sapiens), Q14974; Rango CFP/YFP FRET sensor + importin beta, 45 min; Potency, µM (top dose mostly 92.2 µM), inactives show at the top dose inhibition of complex formation; 340,000 tested, 0.031% active; AID 540263, 2011; active = rising FRET ratio curve, often small or poorly fitted; inconclusive = mostly compound fluorescence or quenching in the first reads; inactive = flat curves in all reads;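 also: potency is read from the fitted curve at half-maximal effect; 0% = DMSO wells and 100% = buffer wells lacking importin beta; nearly all actives have a fitted effect of over 15% in size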
# Target sequence (Q14974 whole entry, looked up): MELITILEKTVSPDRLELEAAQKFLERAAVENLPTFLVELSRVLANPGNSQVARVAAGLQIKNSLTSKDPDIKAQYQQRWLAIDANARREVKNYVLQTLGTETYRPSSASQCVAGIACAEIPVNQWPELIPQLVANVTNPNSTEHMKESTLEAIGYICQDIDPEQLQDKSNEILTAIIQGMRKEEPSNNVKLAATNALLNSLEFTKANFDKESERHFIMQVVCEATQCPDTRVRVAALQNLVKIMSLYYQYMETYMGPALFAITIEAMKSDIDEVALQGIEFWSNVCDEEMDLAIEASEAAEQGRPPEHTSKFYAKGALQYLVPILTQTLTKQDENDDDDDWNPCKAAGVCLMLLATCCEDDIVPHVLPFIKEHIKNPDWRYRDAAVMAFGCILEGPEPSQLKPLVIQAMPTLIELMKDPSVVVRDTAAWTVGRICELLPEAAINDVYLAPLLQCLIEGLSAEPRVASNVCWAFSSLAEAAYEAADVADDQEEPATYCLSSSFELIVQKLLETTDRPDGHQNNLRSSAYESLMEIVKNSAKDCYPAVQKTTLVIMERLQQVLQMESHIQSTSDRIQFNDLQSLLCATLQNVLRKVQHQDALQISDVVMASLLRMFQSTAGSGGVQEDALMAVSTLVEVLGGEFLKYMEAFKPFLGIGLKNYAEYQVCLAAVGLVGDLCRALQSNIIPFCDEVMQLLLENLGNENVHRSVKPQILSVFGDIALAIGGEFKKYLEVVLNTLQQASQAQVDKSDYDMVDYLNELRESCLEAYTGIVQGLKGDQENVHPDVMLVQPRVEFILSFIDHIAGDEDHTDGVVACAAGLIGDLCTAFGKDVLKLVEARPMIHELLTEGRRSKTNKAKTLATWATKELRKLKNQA
#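 FRET biosensor Rango (snurportin 1 IBB between N-terminal EYFP and C-terminal Cerulean), 50 nM in PBS/1 mM DTT/0.02% Tween-20/0.1% BSA, preincubated 5 min RT with compound; 0.125 microM importin beta added, 45 min RT, CFP/YFP FRET ratio read.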
# Rango release inh – qHTS Assay for Inhibitors of RanGTP induced Rango (Ran-regulated importin-beta cargo) - Importin beta complex dissociation. Biochemical FRET Rango-importin beta, RanGTP-induced dissociation. Potency, µM (series often up to 46.1 µM), inactives show at the highest dose activity change, negative = inhibition. 340,000 tested, 0.071% active. AID 540253, 2011; active means falling FRET ratio curve, often poorly fitted, with flat reads before Ran was added; inconclusive means other falling curves, or compound fluorescence or quenching; inactive means flat or rising ratio curve;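 also: potency is read from the fitted curve at half-maximal effect; % of control where 0% means no effect; nearly all actives have a fitted effect of over 45% in size; -100% = wells without RanGTP and RCC1; the record marks most hits as doubtful in a second field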
#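 FRET read at 45 min, room temperature: inhibitors block the CFP/YFP signal rise when RanGTP (0.6 uM Ran, 2 mM GTP, 0.2 uM RCC1) frees Rango (0.1 uM) from importin beta (0.25 uM). Pre-read after 5 min compound exposure flags interference.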
# GLA inh pH 4.5 – qHTS Assay for Inhibitors of Human alpha-Galactosidase at pH 4.5 | Alpha-galactosidase A (Homo sapiens), P06280 | purified enzyme, 4-MU-alpha-Gal fluorescence, pH 4.5 | activity change, negative = inhibition, % at 105 µM | 230,000 tested, under 10 active | AID 1467, 2008; inconclusive = small, poorly fitted or top-dose-only inhibition, or a rising curve; inactive = flat fitted curve, though single readings scatter; no compound was filed as active;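 also: 0% = full activity with enzyme and -100% = basal without enzyme; dose as in the result columns while the protocol names 77 µM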
# miR-21 reporter – qHTS Assay for Modulators of miRNAs and/orActivators of miR-21; HeLa miR-21 FLuc reporter, luciferase, 48 h; Potency, µM (doses to about 38.3 µM), inactives show at the top dose reporter change, positive = more light; 340,000 tested, under 10 active; AID 2288, 2010; active = well fitted rising curve with a large enough effect; inconclusive = small, poorly fitted or top-dose-only effect; inactive = no such curve, though single readings can be large or run the other way;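 also: % of control where 0% means no effect; miR-21 action dims this reporter so a rising signal means less miR-21 action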
#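 HeLa miR-21-FLuc reporter line, endogenous miR-21; 2000 cells/well in DMEM/10% FBS; compound titration up to ~40uM final, 48 h, 37 degree Celsius; luciferase detection reagent, 15 min lysis, CCD luminescence.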
# Numbers without * were called inactive; ? = inconclusive; · = no result given; [ ] = remark or other dose. These rows are one share of the data; rates above refer to the full screens.
# Every second line gives: Rango complex inh | Rango release inh | GLA inh pH 4.5 | miR-21 reporter
CS(=O)(=O)Nc1cccc(C2=NN(S(=O)(=O)c3ccc(F)cc3)C(c3cccs3)C2)c1 (stereo not given)
    -6.2% | -7.7% | -1.4 | -0.5%
O=C(Nc1cccc2cccnc12)c1ccc2c(c1)OCCO2
    0.7% | -9.6% | -5.8 | -44.1%
O=C1CNC(=O)/C1=C/c1ccccc1
    0.5% | -5.5% | -4.4 | -1.4%
COCCN(C(=O)COC(=O)CCOc1cc(C)ccc1C)c1c(N)n(Cc2ccccc2)c(=O)[nH]c1=O
    3.0% | -0.4% | · | ·
O=C(CN1C(=O)NC2(CCCCCC2)C1=O)Nc1ccc(Cl)cc1Cl
    0.9% | 0.7% | · | ·
C=CCNC(=O)c1onc(CCl)c1C(=O)OC
    -0.2% | -1.1% | -1.4 | 22.3%
O=C(Oc1ccccc1Cl)C1CCN(C(=O)c2ccc(F)cc2)CC1
    -2.2% | 7.6% | · | ·
Cn1ncc([N+](=O)[O-])c1C(=O)Nc1ccc(C2CCCCC2)cc1
    -2.4% | 10.5% | 1.9 | -43.6%
COc1ccccc1CNC(=O)CNC(=O)Cn1cnc2ccccc2c1=O
    -1.8% | 5.4% | -11.2 | -2.1%
c1ccc2c(-c3nnc(SCc4cn5ccccc5n4)o3)c[nH]c2c1
    -1.7% | -2.8% | 5.4 | -54.2%
C[C@H](CO)N1C[C@H](C)[C@@H](CN(C)CC2CCCCC2)Oc2ccc(NS(C)(=O)=O)cc2C1=O
    -3.2% | ? | · | ·
CN(CC(=O)Nc1ccc(F)cc1)C(=O)c1ccccc1OCc1ccc(F)cc1
    0.7% | 1.3% | · | 4.1%
CC1(C)NC(=O)N(CC(=O)OCC(=O)N2CCN(S(=O)(=O)c3ccccc3)CC2)C1=O
    0.3% | -3.7% | · | ·
Cc1cccc(N2CC(=O)N(c3cccc(C)c3)CC2=O)c1
    -0.1% | 0.2% | -0.4 | 3.3%
COc1ccc(CN(C)CC(=O)Nc2sc3c(c2C#N)CCC3)c(OC)c1
    -1.0% | -3.7% | -9.9[21.1 µM] | -7.3%
CCOc1ccc(S(=O)(=O)N2CCC(C(N)=O)CC2)c2ccccc12
    1.8% | -10.6% | -4.1 | -10.4%
CCc1nnc(NC(=O)CSc2nnc(COc3ccccc3C)o2)s1
    0.7% | 6.7% | -1.5 | -2.2%
Cc1cc(C)n(CCOC(=O)c2sc3ccccc3c2Cl)n1
    1.9% | 5.5% | 1.3 | -14.6%
O=C(N/N=C/c1ccccc1[N+](=O)[O-])c1cnccn1
    1.6% | -3.7% | -9.5 | -37.0%
Cc1cccc(Nc2nc(N)c([N+](=O)[O-])c(N3CC(C)CC(C)C3)n2)c1 (stereo not given)
    3.4% | 0.3% | -7.1 | 17.6%
CC(C)CN(C(=O)COC(=O)c1ccc2c(c1)NC(=O)CS2)C1CCS(=O)(=O)C1 (stereo not given)
    -0.2% | 8.6% | -1.2 | -4.9%
CCOc1ccccc1N1CCN(Cc2ccc(OC)c(OC)c2)CC1
    3.9% | -14.2% | -1.4 | -3.0%
CC(=O)Nc1ccc2oc(-c3cc(F)c(F)cc3Cl)nc2c1
    ? | 4.0% | 9.0 | -43.3%
O=C(CNC(=O)OCc1ccccc1)Oc1ccc2ccc(=O)oc2c1
    ? | ? | · | 1.5%
Cc1cc(C)n2nc(SCCC(=O)NCc3ccccc3)nc2n1
    0.8% | -12.1% | -1.4 | -4.6%
COC(=O)c1ccccc1NC(=O)c1ccc(-c2ccc(Br)cc2)o1
    -1.2% | 21.7% | 1.7 | -32.8%
CC(C)NS(=O)(=O)c1ccc(CCC(=O)Nc2ccc3c(c2)OCO3)cc1
    2.5% | -0.2% | 5.3 | -0.4%
CCOC(=O)C1=C(O)/C(=C\c2cccs2)N=C1C
    ? | -26.3% | -7.6 | -7.5%
O=C(NC(CO)C(=O)OCc1ccccc1)OCc1ccccc1 (stereo not given)
    -1.3% | 10.1% | · | ·
Cc1cc(C)c(S(=O)(=O)N2CCc3ccccc32)c(C)c1
    -2.2% | -10.7% | · | 14.9%
Cn1c(CN2CCN(c3ccccc3NS(C)(=O)=O)CC2)nc2ccccc21
    -1.6% | 5.4% | · | 5.2%
CCOc1ccccc1N1C(=O)CC(Sc2nccc(C)n2)C1=O (stereo not given)
    -0.6% | -15.3% | · | 0.3%
O=C(CSc1nnc(NC(=O)c2ccco2)s1)Nc1ccccc1Cl
    2.8% | 9.1% | · | -5.0%
CCc1nnc(NC(=O)Cn2nnc(-c3ccccc3F)n2)s1
    3.9% | -5.5% | 1.2 | -3.5%
CCN(Cc1ccccc1)S(=O)(=O)c1cc(C(=O)NCC2CCCCC2)ccc1OC
    -0.3% | 18.8% | -5.1 | 23.5%
O=S(=O)(c1cccs1)N1CCC(Cc2ccccc2)CC1
    -0.8% | 3.0% | -9.1 | -2.2%
O=C(CN1C(=O)NC2(CCCC2)C1=O)N1CCN(c2cccc(C(F)(F)F)c2)CC1
    0.3% | -4.4% | · | ·
CCOc1ccc(C(=O)OCC(=O)Nc2cc(S(=O)(=O)N3CCOCC3)ccc2N2CCOCC2)cc1
    0.7% | -15.3% | · | ·
Cc1ccccc1NC(=O)c1ccc2snnc2c1
    5.2% | -6.5% | 1.1 | -5.2%
CN(C(=O)CN1C(=O)S/C(=C\c2ccccc2)C1=O)C1CCS(=O)(=O)C1 (stereo not given)
    2.0% | 8.6% | · | 2.8%
CC(C)CC(NC(=O)C1CCC(=O)N1C(=O)OCc1ccccc1)C(=O)NC(Cc1ccccc1)C(N)=O (stereo not given)
    1.5% | 18.0% | · | 5.2%
CC1(C)Cc2nc3sc4c(=O)n(Cc5ccccc5)cnc4c3cc2CS1
    0.9% | 11.2% | 6.2 | -8.1%
CCCC(=O)Nc1ccc(C(=O)n2nnc3ccccc32)cc1
    5.9% | -7.3% | -2.9 | -5.6%
CCOc1ccc(C2=Nn3c(nnc3-c3cccnc3)SC2)cc1
    9.6% | -14.8% | 0.8 | -9.0%
COc1ccc(C=O)cc1CN1CCCN(Cc2ccccc2F)S1(=O)=O
    1.1% | -4.6% | · | -0.7%
Cn1c(C(=O)NCCN2CCOCC2)cc2c(=O)n3ccccc3nc21
    ? | 0.4% | · | -1.5%
CC(C)(C)c1ccc(NC(=O)Nc2ccc(F)cc2)cc1
    -2.2% | 26.9% | 6.9 | -2.1%
O=C(CSc1nc2ccccc2c(=O)n1-c1ccccc1F)N1CCOCC1
    -3.1% | -8.4% | · | ·
Cc1occc1C(=O)N1CCCC(Nc2ccc(C(C)C)cc2)C1 (stereo not given)
    2.7% | -7.4% | · | 5.8%
CN(C)/C(=N\S(=O)(=O)c1ccc(F)cc1)c1ccccc1
    -0.6% | 0.4% | · | -5.6%
Cc1ccc2nc(NC(=O)COC(=O)CSc3nc(C)cc(C)n3)sc2c1
    -0.8% | 7.1% | 3.5 | -38.6%
CC(=O)c1cccc(NC(=O)C2CCCCC2)c1
    0.2% | -9.7% | 4.0 | -2.8%
CCOc1cc(/C=N/NC(=O)c2cccs2)cc([N+](=O)[O-])c1O
    1.2% | -0.8% | -21.4 | -46.4%
COc1cc(OC)c(OC)cc1CN1CCCC(C(=O)c2ccccc2SC)C1 (stereo not given)
    -1.9% | 1.5% | 5.2 | 7.8%
Cc1ccc(-c2nc(CS(=O)(=O)CC(=O)N3CCN(C)CC3)c(C)o2)cc1
    -0.7% | 0.1% | · | 3.1%
O=C(OCc1c(-c2ccccc2)ncc2ccccc12)c1ccc(C(F)(F)F)cc1
    -1.5% | 3.9% | · | ·
CC(C)OCCCn1c(NN)nc2ccccc2c1=O
    -0.6% | -1.9% | 2.6 | -0.7%
CCCCCCN1CC(O)=C(c2nc3ccccc3[nH]2)C1=N
    -1.2% | 9.2% | 8.0 | -19.6%
O=C(NC(=S)N1CCN(c2ccc([N+](=O)[O-])cc2)CC1)c1ccccc1F
    ? | -15.8% | -8.8 | -0.8%
COc1cc(OC)c(NC(=S)NCc2ccc(F)cc2)cc1Cl
    0.9% | 2.3% | -7.3 | -1.6%

# Grouped by structure, the compounds so far with a furan ring, fused or not (three)
# Every second line gives: Rango complex inh | Rango release inh | GLA inh pH 4.5 | miR-21 reporter
COC(=O)c1ccccc1NC(=O)c1ccc(-c2ccc(Br)cc2)o1
    -1.2% | 21.7% | 1.7 | -32.8%
O=C(CSc1nnc(NC(=O)c2ccco2)s1)Nc1ccccc1Cl
    2.8% | 9.1% | · | -5.0%
Cc1occc1C(=O)N1CCCC(Nc2ccc(C(C)C)cc2)C1 (stereo not given)
    2.7% | -7.4% | · | 5.8%

# The listing continues:
# Every second line gives: Rango complex inh | Rango release inh | GLA inh pH 4.5 | miR-21 reporter
CC(C)(C)C(=O)OCCn1c(=O)c2cc3c(=O)n(CCOC(=O)C(C)(C)C)c(=O)c3cc2c1=O
    0.3% | 11.3% | -3.4 | -3.5%
OCC1(Cc2ccccc2)CCN(Cc2ccc(-c3ccco3)cc2)CC1
    -0.4% | -8.0% | -17.7 | -6.9%
CCCCc1nn2c(N)c(/C=C3\C=Nc4ccccc43)c(=O)nc2s1
    ? | ? | 11.9 | -1.2%
CC(c1ccco1)N(C(=O)c1ccccc1NS(=O)(=O)c1cc([N+](=O)[O-])ccc1Cl)c1ccccn1 (stereo not given)
    -5.0% | 2.1% | -3.2 | 3.2%
Cc1nnc(SCC(=O)N2CCc3ccccc3C2)n1-c1ccccc1
    2.8% | -3.0% | 2.5 | 1.0%
C=CCN(CC=C)C(=O)c1c(OC)cccc1OC
    0.8% | -1.8% | 4.1 | -3.7%
O=[N+]([O-])c1cnn(-c2nc(-c3ccccc3)cc(C(F)(F)F)n2)c1
    1.2% | 2.8% | 2.3 | -4.0%
Cc1ccc(C(=O)NS(=O)(=O)c2ccccc2)cc1
    -0.5% | 1.4% | 8.9 | 2.0%
O=S1(=O)N=C(N(CCO)/N=C/c2ccncc2)c2ccccc21
    -2.2% | 19.9% | -8.9 | -0.2%
Cc1csc(NC(=O)CSCc2c(C)noc2C)n1
    -0.9% | 6.0% | · | ·
Cc1ccc2[nH]c(=O)c(CN(Cc3ccco3)C(=O)c3ccncc3)cc2c1
    -4.7% | -0.3% | -16.5 | 19.5%
O=C(C1CC1)N1CCc2cc(Br)cc(S(=O)(=O)NCc3ccc4c(c3)OCO4)c21
    5.3% | -4.7% | -1.2 | 0.7%
Cc1cc(C)c2nc(Cl)c(C3NC(=O)c4ccccc4N3)cc2c1 (stereo not given)
    0.3% | 10.8% | 4.0 | -0.8%
Cc1ccnc(NS(=O)(=O)c2ccc(NC(=O)Cc3ccc(F)cc3)cc2)n1
    -2.8% | -2.7% | · | -8.0%
O=C(CCNS(=O)(=O)c1ccccc1C(F)(F)F)NCC(c1ccco1)N1CCCCC1 (stereo not given)
    -0.1% | -5.1% | · | ·
Cc1ccsc1/C=C(\C#N)C(=O)NCc1ccco1
    -0.6% | 2.0% | -0.9 | -8.6%
O=C(CNC(=S)N(Cc1ccccc1)Cc1cccnc1)NC1CCCC1
    3.4% | -3.3% | -0.5 | -8.5%
O=C(CSc1nnc(NC(=O)C2CCCCC2)s1)NCc1ccco1
    ? | 9.5% | 3.4 | -8.7%
O=C(CCN1CCN(c2ccccc2)CC1)N/N=C/c1ccc([N+](=O)[O-])o1
    -1.0% | -5.2% | ? | 22.0%
CC1CCCN(C(=O)C2CCCN(S(=O)(=O)c3cccc4nsnc34)C2)C1 (stereo not given)
    0.3% | 0.6% | 5.5 | -0.1%
CN(CCc1ccccc1)Cc1nc(-c2cnccn2)no1
    -2.5% | -10.8% | 5.3 | -12.2%
COc1ccccc1CNC(=O)COC(=O)c1ccc([N+](=O)[O-])o1
    -2.5% | 2.6% | · | ·
Cn1c(=O)n(Cc2ccccc2)c(=O)c2c1nc1n2CCCN1Cc1ccccc1
    -2.2% | -9.4% | -4.6 | -6.2%
CCCCN(C(=O)Oc1ccccc1)C1CCS(=O)(=O)C1 (stereo not given)
    -2.2% | -2.6% | -14.1 | 0.0%
